Assay outcomes: PubChem BioAssay, ICCB-Longwood Screening Facility, Harvard Medical School
MenB inh = M. tuberculosis MenB inhibitors, primary screen, biochemical, absorbance | MenB enzyme assay, absorbance read-out; some hits fall short of the stated cut | 1,4-dihydroxy-2-naphthoyl-CoA synthase (Mycobacterium tuberculosis (strain ATCC 25618 / … | 0.43% of 100,000 active | inhibition, %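 (about 12 µg/mL by stock and volumes)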;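 active = mean of two replicates above 30%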;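 also: 0% = no compound and 100% = wells with inactive enzyme; the first replicate is given; strong numbers were not always called active; inactives centre near -10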
Target sequence (P9WNP5 whole entry, looked up): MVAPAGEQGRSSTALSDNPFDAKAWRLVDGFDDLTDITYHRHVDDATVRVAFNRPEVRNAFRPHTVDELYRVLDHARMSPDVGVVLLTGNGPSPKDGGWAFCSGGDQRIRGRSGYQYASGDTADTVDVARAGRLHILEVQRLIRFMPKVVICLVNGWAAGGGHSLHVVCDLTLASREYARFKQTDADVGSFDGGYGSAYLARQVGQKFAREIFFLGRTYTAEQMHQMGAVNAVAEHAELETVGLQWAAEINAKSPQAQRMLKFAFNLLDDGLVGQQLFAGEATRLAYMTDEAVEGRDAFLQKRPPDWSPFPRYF
PV pol inh = poliovirus RdRp elongation inhibitors, primary screen, biochemical, fluorescence polarization, total intensity; Genome polyprotein (Poliovirus type 1 (strain Mahoney)), P03300; poliovirus polymerase elongation; hits give low values; % elongation, % (compound at 16.7 µg/mL); AID 588519, 2011; 0.66% of 150,000 active; in the data active = % elongation below about 90%; also: some results filed as inactive read as strong as hits
MbtI inh = MbtI salicylate synthase inhibitors, primary screen, biochemical, fluorescence intensity; P9WFX0; purified MbtI enzyme, fluorescence intensity read-out; inhibition, %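 (about 17 µg/mL by stock and volumes)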; 0.89% of 100,000 active; AID 493033, 2011;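 active = above 50% in both replicates, above 80% if mildly self-fluorescent; inactive = the rest, strongly fluorescent compounds included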;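 also: 0% = mean of negative and 100% = mean of positive controls; one replicate is shown; some compounds called inactive have numbers as strong as hits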
Target sequence (P9WFX0 whole entry, looked up): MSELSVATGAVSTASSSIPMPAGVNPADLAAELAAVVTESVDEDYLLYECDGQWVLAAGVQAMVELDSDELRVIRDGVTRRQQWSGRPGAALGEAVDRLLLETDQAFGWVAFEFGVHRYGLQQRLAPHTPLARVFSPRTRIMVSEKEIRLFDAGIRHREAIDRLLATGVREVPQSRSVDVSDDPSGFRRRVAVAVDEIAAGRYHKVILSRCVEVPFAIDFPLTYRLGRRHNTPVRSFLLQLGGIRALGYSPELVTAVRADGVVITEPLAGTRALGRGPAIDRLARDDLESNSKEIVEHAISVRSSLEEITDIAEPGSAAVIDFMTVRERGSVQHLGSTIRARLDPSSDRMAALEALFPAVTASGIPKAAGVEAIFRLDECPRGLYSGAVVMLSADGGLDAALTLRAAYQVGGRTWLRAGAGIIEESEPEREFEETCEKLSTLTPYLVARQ
PV pol inh intensity = further read-out of PV pol inh, marked with its call; % elongation; measured here: total intensity read-out; formula for this scale not given here;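 total fluorescence in place of polarization; lower means less elongation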
An asterisk follows results filed as active; i = inactive; . = no result given. The order is random; overall some 1.7% were active at least once.

Screens in order: MenB inh, PV pol inh, PV pol inh intensity, MbtI inh
- N#Cc1ccc(-c2cccc(Cl)c2Cl)o1
→ -35.8, 103.0, 103.0, 20.6
- O=C(c1ccc2c(c1)CCN2S(=O)(=O)c1ccccc1)N1CCN(c2ccccc2)CC1
→ -21.3, 105.0, 102.0, -8.8
- COc1ccc2c(c1)C(=O)N(c1ccccc1)C(=O)C2
→ -61.8, 96.0, 100.0, i
- CC(=O)N1CCN(C(=O)c2cc(-c3ccc(C)cc3)nc3ccccc23)CC1
→ ., 100.0, 101.0, 45.5
- O=C(Cc1ccc(Cl)cc1)NCC1COC2(CCCC2)O1 (configuration not stated)
→ -9.9, 103.0, 101.0, -4.8
- CC(C)OC(=O)c1cc2nc(-c3ccccc3)cc(C(F)(F)F)n2n1
→ -24.7, 103.0, 110.0, .
- O=C(C1CCCO1)N1CCN(c2ccc(Cl)c(Cl)c2)CC1 (configuration not stated)
→ -1.9, 100.0, 102.0, 2.0
- Cc1ccc(-c2nc(C#N)c(NCc3ccc4c(c3)OCO4)o2)cc1
→ -6.0, 104.0, 105.0, .
- COc1cc(/C=N/n2nnnc2N)ccc1OCc1ccc(Cl)cc1Cl
→ 6.7, 99.0, 99.0, 29.9
- CCc1cc2c(N3CCN(c4nc(C)cc(C)n4)CC3)ncnc2s1
→ -1.0, 102.0, 100.0, .

(listing goes on)
Screens in order: MenB inh, PV pol inh, PV pol inh intensity, MbtI inh
- Cc1cc(Cl)nc(C(C)C)n1
→ -7.1, 96.0, 104.0, -5.2
- CC(C)N(Cn1nc(-c2ccccc2)n(-c2ccccc2)c1=S)C(C)C
→ -46.7, 100.0, 96.0, 15.5
- CCn1nnc2c(NC3CCCCC3)ncnc21
→ -21.9, 101.0, 109.0, 9.3
- C=C(C)CSc1nc2ccccc2s1
→ 1.1, 103.0, 111.0, -10.6
- COc1ccc(C(=O)c2sc3nc(-c4ccco4)cc(C(F)(F)F)c3c2N)cc1OC
→ -22.4, 90.0, 186.0, 7.1
- CCC1CCc2c(sc3ncnc(N4CCOCC4)c23)C1 (configuration not stated)
→ -14.3, 103.0, 107.0, -11.0
- CCn1c(CSc2nc3ccccc3s2)nnc1SCc1ccc(C(=O)OC)o1
→ -18.7, 100.0, 100.0, -3.5
- C/C(=N/O)c1cc(C(C)(C)C)c(O)c(C(C)(C)C)c1
→ -12.9, 100.0, 102.0, -7.3
- CN(C)S(=O)(=O)CC12CCC(CC1=O)C2(C)C (configuration not stated)
→ -2.8, 102.0, 104.0, -15.0
- CCc1ccc(NC(=O)c2[nH]nc3c2CSc2ccccc2-3)cc1
→ -27.7, 105.0, 102.0, -1.2

Further structures follow.
Screens in order: MenB inh, PV pol inh, PV pol inh intensity, MbtI inh
- N#CCSc1ccc(-c2ccco2)nn1
→ -24.4, 107.0, 119.0, 25.9
- CC(Oc1ccccc1)c1nc2ccccc2[nH]1 (configuration not stated)
→ ., 101.0, 98.0, -4.9
- Cc1cc(=O)n(CC(C)C)c(O)c1C#N
→ -3.9, 101.0, 102.0, -28.4
- Cc1nc2sccn2c1C(=O)C(F)(F)F
→ -2.5, 105.0, 109.0, -1.4
- COC(=O)c1ccccc1NC(=O)CN1CCC(C)CC1
→ -6.6, 101.0, 103.0, -16.9
- O=C(Oc1ccc(OC(=O)N2CCOCC2)cc1)N1CCOCC1
→ 28.8, 102.0, 105.0, -5.1
- Cc1ccc(S(=O)(=O)N2CCCC(NC(=O)N3CCN(c4ccccc4)CC3)C2)cc1 (configuration not stated)
→ -22.1, 103.0, 102.0, -2.9
- COc1ccccc1NC1=NCCS1
→ ., 98.0, 95.0, -5.8
- O=C(Nc1cccc(-c2nnc3n2CCCCC3)c1)C1=CN2CCS(=O)(=O)N=C2C=C1
→ -19.3, 104.0, 110.0, 65.8
- COc1ccccc1C(=O)OCC(=O)NCc1ccccc1
→ ., 101.0, 99.0, 14.6

Later entries.
Screens in order: MenB inh, PV pol inh, PV pol inh intensity, MbtI inh
- CC(C)c1ccc(NC(=O)C2CC(=O)N=C(N)S2)cc1 (configuration not stated)
→ -4.1, 99.0, 105.0, .
- O=C(NCc1ccc(Cl)cc1)c1cc2sccc2n1Cc1ccc(F)cc1
→ 0.8, 102.0, 106.0, 2.4
- S=c1nc[nH]c2c1cnn2-c1ccccc1
→ -0.2, 102.0, 104.0, 7.1
- O=C1OC(N2CCc3ccccc3C2)c2ccccc21 (configuration not stated)
→ -5.6, 103.0, 99.0, -21.5
- C1CCC2(C1)OCC1(CO2)COC2(CCCC2)OC1
→ -8.9, 100.0, 103.0, -23.9
- CN(C)c1ccc(/C=C2\SC(=S)NC2=O)cc1
→ ., 69.0, 194.0, -1.6
- CN(C)/C=N/S(=O)(=O)c1cc(Cl)sc1Cl
→ 12.2, 100.0, 96.0, 13.5
- CCCN1CCC(NN2CCOCC2)CC1
→ -21.8, 101.0, 102.0, 0.9
- Cc1csc(/C(=N\O)c2csc(C)n2)n1
→ -1.2, 105.0, 98.0, 3.4
- CCC(c1nnnn1C1CCCC1)N1CCN(Cc2ccccc2)CC1 (configuration not stated)
→ 0.6, 102.0, 103.0, -10.1

Some of the entries above, reformatted.
SMILES,MenB inh,PV pol inh,PV pol inh intensity,MbtI inh
Cc1csc(/C(=N\O)c2csc(C)n2)n1,-1.2,105.0,98.0,3.4
CCC(c1nnnn1C1CCCC1)N1CCN(Cc2ccccc2)CC1 (configuration not stated),0.6,102.0,103.0,-10.1

The results go on:
Screens in order: MenB inh, PV pol inh, PV pol inh intensity, MbtI inh
- CC(CN1CC2CC(C1)c1cccc(=O)n1C2)SC(=N)N (configuration not stated)
→ 7.4, 107.0, 108.0, .
- Cc1c(C(=O)NC2CCCC2)oc2ccc3c(c12)C=CC1(CCCC1)O3
→ -29.4, 100.0, 96.0, 10.5
- O=C(NCC1COc2ccccc2O1)c1cc2c(s1)-c1ccccc1OC2 (configuration not stated)
→ -36.4, 100.0, 102.0, 101.5
- O=C(O)CNC(=O)/C=C/c1ccccc1F
→ -6.5, 101.0, 106.0, 3.0
- Cc1cccc(NC(=O)CC2C(=O)NCCN2C(=S)Nc2ccccc2)c1 (configuration not stated)
→ 8.0, 100.0, 102.0, -5.6
- CC1CCCC(NC(=O)CN2C(=O)/C(=C\c3ccccc3Cl)Oc3ccccc32)C1C (configuration not stated)
→ -18.1, 101.0, 97.0, 97.2
- Cc1cc(C(F)(F)F)nc2snc(Br)c12
→ 0.5, 101.0, 107.0, 16.6
- Brc1ccc(/C=C2\CCC(C3=CCCC3)=C2N2CCOCC2)cc1
→ -9.9, 106.0, 114.0, 102.8
- O=C(/C=C/c1ccccc1)Nc1ccc2c(c1)OCCO2
→ -23.3, 104.0, 100.0, -3.8
- CCNC(=O)C1CCN(S(=O)(=O)c2ccc(C)cc2)CC1
→ -53.4, 104.0, 100.0, -6.5

Later entries
Screens in order: MenB inh, PV pol inh, PV pol inh intensity, MbtI inh
- CCCCc1ccc(NC(=O)/C=N/O)cc1
→ -25.6, 100.0, 97.0, 2.1
- CC(C)C1Oc2ccccc2N(CC(=O)N(C)C2CCCCC2)C1=O (configuration not stated)
→ -24.0, 102.0, 101.0, -8.1
- O=C(Cc1cn2ccsc2n1)OCc1ccccc1
→ ., 104.0, 103.0, 3.6
- C[C@]12CC[C@@H](O)C[C@@H]1CC[C@@H]1[C@@H]2CC[C@]2(C)C(=O)CC[C@@H]12
→ 2.4, 98.0, 100.0, -1.3
- Cn1cccc1CC(=O)N/N=C1/CCCc2ccccc21
→ 4.5, 106.0, 102.0, 0.4
- Cc1nn(C(=O)c2c[nH]c3ccccc23)c(N)c1-c1ccccc1
→ -32.8, 107.0, 110.0, .
- Cc1nnc2c3ccccc3c(-c3cccs3)nn12
→ ., 100.0, 100.0, -7.8
- CCc1nc(SCc2ccccc2)[nH]c(=O)c1C
→ 0.0, 102.0, 102.0, 83.2*
- CCOC(=O)C1CCC(CNC(=O)N2CC(CC)Oc3ccccc32)CC1 (configuration not stated)
→ 13.9, 99.0, 100.0, -0.5
- COC(=O)COc1cccc(NC(=O)Cc2cccs2)c1
→ -14.2, 103.0, 103.0, -11.7

Further compounds follow.
Screens in order: MenB inh, PV pol inh, PV pol inh intensity, MbtI inh
- NC(=O)CSc1ccc(-c2cccs2)nn1
→ -12.3, 100.0, 95.0, -4.8
- CCOc1cc(/C=C2\SC(=S)N(CC)C2=O)cc(Cl)c1O
→ -49.3, 75.0, 175.0, -1.6
- N#Cc1nc(-c2ccccc2)oc1NCCN1CCCCC1
→ 3.2, 107.0, 99.0, .
- CCSc1nc(NC(C)C)nc(N2CCOCC2)n1
→ 12.1, 101.0, 100.0, 0.5
- CSc1nc2cc(C)nn2c(-c2ccco2)c1C#N
→ 2.7, 106.0, 113.0, -6.3
- COC(=O)c1cn(C(=O)CCc2ccccc2)c2ccccc12
→ -48.8, 105.0, 105.0, -8.1
- COc1ccc(NC(=O)NCc2ccccc2)cc1
→ -19.9, 99.0, 99.0, 5.8
- COC(=O)c1sccc1S(=O)(=O)Nc1ccc2c(c1)OCCO2
→ -8.4, 105.0, 107.0, -5.9
- CN(C)/C=N/c1nnc(SCC(=O)Nc2cc(Cl)cc(Cl)c2)s1
→ -13.1, 105.0, 108.0, -7.1
- CCCC(=O)N1CCCC(c2nc3c(nnn3Cc3ccccc3)c(=O)[nH]2)C1 (configuration not stated)
→ -35.9, 104.0, 99.0, 0.5

Remaining list, next part.
Screens in order: MenB inh, PV pol inh, PV pol inh intensity, MbtI inh
- CCOC(=O)c1cnc2ccc(C(=O)OC)cc2c1NCc1ccco1
→ 3.4, 101.0, 102.0, 33.5
- COc1ccc(C(=O)COc2ncnc3cc(Cl)ccc23)cc1
→ 5.9, 101.0, 104.0, -6.0
- NC(=O)COC(=O)/C=C/c1ccc2ccccc2n1
→ -21.7, 95.0, 103.0, 29.1
- O=C(NCc1ccc2c(c1)OCO2)c1ccc2c(=O)n(CCC3=CCCCC3)c(=O)[nH]c2c1
→ -18.9, 101.0, 101.0, -40.8
- O=S(=O)(Nc1ccc(-c2nnc3n2CCCCC3)cc1)c1ccc(Br)cc1
→ -26.7, 106.0, 110.0, 7.4
- CCOc1nc(Nc2ccccc2)nc(OCC)n1
→ 23.2, 102.0, 104.0, 8.1
- CCCC(=O)Nc1nnc(-c2ccccc2F)s1
→ -4.8, 102.0, 108.0, .
- COc1ccc(NC(Cc2ccccc2)c2ccco2)cc1 (configuration not stated)
→ -31.8, 106.0, 102.0, 0.2
- CCCCNc1nc2ccccc2n1CC(=O)N1CCc2ccccc21
→ -24.7, 103.0, 106.0, -15.2
- COc1ccc(-c2ccc(N)[n+](CCCC(=O)O)n2)cc1
→ 0.7, 99.0, 102.0, -4.1

Following part:
Screens in order: MenB inh, PV pol inh, PV pol inh intensity, MbtI inh
- COCCn1c(C)c(C(=O)O)sc1=S
→ 11.6, 97.0, 102.0, 10.5
- O=C(NCC1CCCO1)c1cc(=O)[nH]c2ccc(Br)cc12 (configuration not stated)
→ -10.4, 99.0, 101.0, 5.6
- Cn1cnc(S(=O)(=O)Nc2cccc(Cl)c2)c1
→ -16.6, 103.0, 104.0, -7.2
- CN(C)c1ccc(C2Nc3sc4c(c3C(=O)N2C)CCCC4)cc1 (configuration not stated)
→ -15.1, 103.0, 109.0, 38.1
- CN(C)C1=C(C#N)C(c2ccccc2)=NP(N(C)C)(N(C)C)=N1
→ -10.7, 107.0, 110.0, -10.6
- CCOc1ccc(-c2csc3ncn(CC(N)=O)c(=O)c23)cc1
→ -10.8, 100.0, 102.0, 12.7
- COc1ccc(OCC2CN=C(Nc3ccc(C)cc3)S2)cc1 (configuration not stated)
→ 14.4, 107.0, 108.0, -12.5
- CC1CCCC(N2CC(C(=O)O)CC2=O)C1C (configuration not stated)
→ 12.1, 96.0, 94.0, 3.0
- CCC(=O)NC1CC(=O)N(c2cccc(OC)c2)C1 (configuration not stated)
→ 3.5, 99.0, 107.0, 1.2
- CS(=O)(=O)c1ncc2c(n1)c(=O)c(C#N)c1[nH]c3ccccc3c(=O)n12
→ -69.4, 61.0, 239.0, 20.9
- CCN(CC)C/C=C/c1c(F)c(F)c(OC)c(F)c1F
→ -22.1, 102.0, 104.0, -18.1
- COC(C(=O)NCc1cccnc1)c1ccccc1 (configuration not stated)
→ -5.7, 100.0, 105.0, .
- Cn1c(CSc2nc(N)cc(N)n2)n[nH]c1=S
→ -16.6, 98.0, 101.0, 10.2

Sorted by length of the SMILES (lowest first): 7 of the compounds above.
Screens in order: MenB inh, PV pol inh, PV pol inh intensity, MbtI inh
- COCCn1c(C)c(C(=O)O)sc1=S
→ 11.6, 97.0, 102.0, 10.5
- COC(C(=O)NCc1cccnc1)c1ccccc1 (configuration not stated)
→ -5.7, 100.0, 105.0, .
- Cn1cnc(S(=O)(=O)Nc2cccc(Cl)c2)c1
→ -16.6, 103.0, 104.0, -7.2
- COc1ccc(OCC2CN=C(Nc3ccc(C)cc3)S2)cc1 (configuration not stated)
→ 14.4, 107.0, 108.0, -12.5
- CCOc1ccc(-c2csc3ncn(CC(N)=O)c(=O)c23)cc1
→ -10.8, 100.0, 102.0, 12.7
- CN(C)c1ccc(C2Nc3sc4c(c3C(=O)N2C)CCCC4)cc1 (configuration not stated)
→ -15.1, 103.0, 109.0, 38.1
- CS(=O)(=O)c1ncc2c(n1)c(=O)c(C#N)c1[nH]c3ccccc3c(=O)n12
→ -69.4, 61.0, 239.0, 20.9
